Rango dissoc inh: inhibition of RanGTP-driven Rango-importin beta dissociation. O95149+P62826. Biochemical FRET Rango-importin beta, RanGTP-induced dissociation. Potency, µM (doses to about 46.1 µM), for inactives: at the highest dose activity change, negative = inhibition. hit rate 0.071% among 340,000. AID 540253; active means falling FRET ratio curve, often poorly fitted, with flat reads before Ran was added; inconclusive means other falling curves, or compound fluorescence or quenching; inactive means flat or rising ratio curve;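 also: potency is read from the fitted curve at half-maximal effect; % of control where 0% means no effect; nearly all actives have a fitted effect of over 45% in size; -100% = wells without RanGTP and RCC1; the record marks most hits as doubtful in a second field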
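FRET read at 45 min, room temperature: inhibitors block the CFP/YFP signal rise when RanGTP (0.6 uM Ran, 2 mM GTP, 0.2 uM RCC1) frees Rango (0.1 uM) from importin beta (0.25 uM). Pre-read after 5 min compound exposure flags interference.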
Rango-impB inh: Rango-importin beta binding inhibition; Q14974; Rango CFP/YFP FRET sensor + importin beta, 45 min; Potency, µM (doses to about 92.2 µM), for inactives: top-dose inhibition of complex formation; hit rate 0.031% among 340,000; active = rising FRET ratio curve, often small or poorly fitted; inconclusive = mostly compound fluorescence or quenching in the first reads; inactive = flat curves in all reads;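 also: potency is read from the fitted curve at half-maximal effect; 0% = DMSO wells and 100% = buffer wells lacking importin beta; nearly all actives have a fitted effect of over 15% in size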
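FRET biosensor (snurportin 1 IBB flanked by EYFP and cerulean), 50 nM, with compound 5 min, then 0.125 microM importin beta in PBS, 1 mM DTT, 0.02% Tween-20, 0.1% BSA. CFP/YFP ratio read after 45 min at room temperature; pre-read flags interference.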
GLA inh pH 4.5: alpha-galactosidase A (human) inhibition, pH 4.5; activity change, negative = inhibition, % at 105 µM; AID 1467; 230,000 tested, under 10 active; purified enzyme, 4-MU-alpha-Gal fluorescence, pH 4.5; inconclusive = small, poorly fitted or top-dose-only inhibition, or a rising curve; inactive = flat fitted curve, though single readings scatter; no compound was filed as active;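 also: 0% = full activity with enzyme and -100% = basal without enzyme; dose as in the result columns while the protocol names 77 µM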
Target sequence (P06280 whole entry, looked up): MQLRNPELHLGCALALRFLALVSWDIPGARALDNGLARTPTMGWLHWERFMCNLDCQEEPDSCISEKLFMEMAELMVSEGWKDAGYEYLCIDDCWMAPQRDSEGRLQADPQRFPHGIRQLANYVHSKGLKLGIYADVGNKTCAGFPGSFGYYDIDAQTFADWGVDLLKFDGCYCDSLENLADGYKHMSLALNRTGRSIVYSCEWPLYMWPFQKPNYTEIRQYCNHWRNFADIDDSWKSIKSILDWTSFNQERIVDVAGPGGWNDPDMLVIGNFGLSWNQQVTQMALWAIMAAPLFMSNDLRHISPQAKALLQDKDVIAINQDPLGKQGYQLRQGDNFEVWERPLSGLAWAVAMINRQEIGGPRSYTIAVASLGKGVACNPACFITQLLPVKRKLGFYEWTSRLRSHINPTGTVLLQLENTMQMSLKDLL
miR-21 FLuc: miR-21 reporter, rising signal; HeLa miR-21 FLuc reporter, luciferase, 48 h; Potency, µM (titrated, usually from 38.3 µM), for inactives: at the top dose reporter change, positive = more light; 340,000 tested, under 10 active; AID 2288; active = well fitted rising curve with a large enough effect; inconclusive = small, poorly fitted or top-dose-only effect; inactive = no such curve, though single readings can be large or run the other way;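 also: % of control where 0% means no effect; miR-21 action dims this reporter so a rising signal means less miR-21 action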
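HeLa miR-21-FLuc reporter line, endogenous miR-21; 2000 cells/well in DMEM/10% FBS; compound titration up to ~40uM final, 48 h, 37 degree Celsius; luciferase detection reagent, 15 min lysis, CCD luminescence.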
Numbers without * were called inactive; ? = inconclusive; · = not tested or not shown. A portion of the library. The share of hits here may be higher or lower than overall.

SMILES	Rango dissoc inh	Rango-impB inh	GLA inh pH 4.5	miR-21 FLuc
CCN(Cc1ccccc1)C(=O)c1cc2cc(OC)c(OC)cc2[nH]1	-12%	0.0%	·	-4%
CC(C)c1nc(SCC(=O)Nc2cccc(S(N)(=O)=O)c2)n[nH]1	6%	-0.7%	2	-1%
c1ccc2nc3c(nc2c1)CCc1nonc1-3	33%	-1.3%	1	2%
O=C(NC1=NCCS1)c1ccc(Cl)c(S(=O)(=O)N2CCCC2)c1	-3%	-1.0%	-9	-7%
CCCOc1ccc(Cc2nn[nH]n2)cc1	21%	-5.3%	9	0%
CC(=O)Oc1ccc(C(=O)Nc2nccs2)cc1	0%	0.6%	5	-29%
Cc1cccc[n+]1CC(=O)c1ccc2c(c1)OCCO2	-6%	-0.2%	3	-9%
O=C(NCC1CCCO1)c1nn2cccnc2c1Cl (centres undefined)	0%	-0.1%	-5	-28%
COc1ccc(OC)c(Nc2nc(-c3sc(N)nc3C)cs2)c1	-17%	-2.4%	-7	-16%
Cc1ccsc1C(=O)OCc1csc(-c2ccccc2)n1	-12%	2.9%	2	-32%
COc1cc(NC(=S)N2CCN(CCO)CC2)c(OC)cc1Cl	1%	-6.0%	-1	4%
CS(=O)(=O)N(CC(=O)N1CCCCC1)Cc1ccc(Cl)cc1	7%	4.7%	7	-2%
Cc1ccc(/C=N/NC(=O)c2ccc(C(=O)N/N=C/c3ccc(C)s3)o2)s1	?	-5.6%	-6	-2%
CS(=O)(=O)N(CC(=O)NC1CCCC1)C1CCCCC1	-8%	0.2%	1	5%
Cc1cccc(C(=O)NCC(=O)N2CC=C(c3ccccc3)CC2)c1	27%	-3.9%	·	·
COc1cc(OC)cc(-n2nnnc2SCC(=O)NC2CCCC2)c1	5%	7.7%	3	0%
C(=N\N1CCN(C2c3ccccc3-c3ccccc32)CC1)/c1ccccn1	4%	-3.5%	-9	-4%
NCCCCCNC(=O)/C=N\O	-3%	-0.9%	5	0%
Cc1ccc(OCC(=O)Nc2ccc3c(c2)OCCO3)cc1C	1%	3.2%	1	-48%
COCCn1cnnc1SCC(=O)Nc1sc2c(c1C#N)CCC2	-12%	-1.3%	·	·

Next part, starting with the last two of the part before.
SMILES	Rango dissoc inh	Rango-impB inh	GLA inh pH 4.5	miR-21 FLuc
Cc1ccc(OCC(=O)Nc2ccc3c(c2)OCCO3)cc1C	1%	3.2%	1	-48%
COCCn1cnnc1SCC(=O)Nc1sc2c(c1C#N)CCC2	-12%	-1.3%	·	·
COc1ccc(-n2nc(C(=O)NCC(=O)N3CCCC(C)C3)c3ccccc3c2=O)cc1Cl (centres undefined)	5%	-2.0%	·	-12%
Cc1ccc(OCC(=O)Nc2ccc(Cl)cc2)c([N+](=O)[O-])n1	-18%	-3.5%	·	·
CC(C)(C)c1ccc(-c2csc(NC(=O)CN3C(=O)NC4(CCCCC4)C3=O)n2)cc1	3%	0.1%	4	-29%
COc1ccc(CN2C(=O)c3cccnc3C2=O)cc1S(=O)(=O)N1CC(C)Oc2ccccc21 (centres undefined)	22%	1.6%	·	2%
O=C(Cn1c(CO)nc2ccccc21)Nc1ccc2c(c1)OCCCO2	29%	4.6%	·	·
COC(=O)c1ccc(/C=C2/SC(=S)N(CCCC(=O)Nc3ccc(O)cc3)C2=O)cc1	1%	1.0%	·	-13%
Cc1ncc(CO)c(/C=N/NC(=O)c2cc(O)c(O)c(O)c2)c1O	·	·	-9	1%
Cc1cc2nc(-c3cccnc3SCC(=O)NC(C)C)[nH]c2cc1C	10%	?	9	-51%
C=C(C)CSc1nc2c(cc1C#N)CCC2	2%	0.0%	-4	-15%
C[C@H]1COC(=O)[C@H](Cc2ccc(F)cc2)C/C=C\C[C@H](CC(=O)NCCO)C(=O)N1	14%	0.3%	·	·
NNC(=O)c1sc2cc(C(F)(F)F)cnc2c1-c1cccnc1	10%	2.0%	3	0%
CC1CCCCN1C(=O)CSc1nnc(-c2ccco2)o1 (centres undefined)	-7%	-1.6%	·	-48%
O=C1OC(Nc2ccc3ncccc3c2)c2ccccc21 (centres undefined)	-14%	0.8%	3	-6%
CCN(CC)S(=O)(=O)c1cc(NC(=O)c2ccc(-n3cncn3)c([N+](=O)[O-])c2)ccc1C	3%	-2.2%	·	30%
Cc1ccc(NC(=O)c2nc3nccc(C)n3n2)cc1S(=O)(=O)N1CCCCC1	-1%	1.4%	·	·
COC(=O)c1ccc(CSc2nnc(NC(=O)C3CC(=O)N(c4ccc5c(c4)OCCO5)C3)s2)cc1 (centres undefined)	-4%	4.3%	1	-5%
CCCOc1ccc(C(=O)NC(=S)N2CCN(c3cc4c(cc3F)c(=O)c(C(=O)O)cn4CC)CC2)cc1	13%	-0.7%	·	-2%
C#CCOCCOCCOCCNc1nc(N2CCN(C(=O)Cn3cc(CCO)nn3)CC2)nc(N2CCN(C(=O)Cn3cc(CC(C)O)nn3)CC2)n1 (centres undefined)	-3%	2.4%	·	·
COc1ccc(-c2onc(C)c2-c2ccc(C(=O)OC(C)C)o2)c(O)c1	-16%	-3.2%	·	?
COc1ccccc1N(C)S(=O)(=O)c1ccc(C(=O)NCC(c2ccco2)N2CCCCC2)cc1 (centres undefined)	9%	5.1%	·	·
O=C1c2cccc3c2N(CCC3)C(=O)C1(F)c1ccccc1 (centres undefined)	16%	-0.4%	·	·
COc1ccccc1NC(=O)NNC(=O)CCc1ccccc1	-18%	-2.2%	·	-1%
O=C(N/N=C/c1ccncc1)c1sc2ccccc2c1Cl	2%	1.5%	·	1%
COc1cccc(CC2(CO)CCCN(Cc3cn[nH]c3-c3cc(C)ccc3C)C2)c1 (centres undefined)	18%	-0.7%	-13	-4%
COCCN(C(=O)COC(=O)c1cnc(C)cn1)c1c(N)n(Cc2ccccc2)c(=O)[nH]c1=O	0%	-0.2%	·	·
CCOC(=O)c1[nH]c2c(c1C)C(=O)CC(c1ccc(OCC)c(OC)c1)C2 (centres undefined)	2%	-2.4%	5	-2%
CCC(=O)c1ccc(OCC(=O)OC(C)C(=O)NCc2ccc3c(c2)OCO3)cc1 (centres undefined)	1%	0.2%	·	·
O=C(CC1C(=O)NCCN1C/C=C/c1ccccc1)NCCc1cccnc1 (centres undefined)	-1%	-1.5%	-6	-23%
Cc1c(CCOC(=O)c2ccccc2)sc[n+]1Cc1ccccc1	20%	0.1%	1	-1%
COCCCNC(=O)C(=O)N/N=C/c1cc2c(cc1Br)OCO2	-16%	6.9%	3	0%
COc1ccccc1NS(=O)(=O)c1ccc(C)c(NS(=O)(=O)c2cc(NC(C)=O)ccc2OC)c1	19%	-0.3%	·	·
CC1Cn2c(nc3sc4c(c3c2=O)CC(C)(C)OC4)N1CCO (centres undefined)	-7%	-1.0%	·	2%
Cc1ccc(-c2cc(C(=O)Nc3ccc(S(=O)(=O)Nc4cc(C)on4)cc3)c3ccccc3n2)c(C)c1	11%	0.4%	0	4%
CCOC(=O)c1ccc(-c2c(-c3ccc4c(c3)OCO4)noc2-c2ccsc2)cc1F	0%	0.6%	·	0%
O=C(NCCCN1CCOCC1)c1onc(CSc2nc3ccccc3[nH]2)c1C(=O)NCCCN1CCOCC1	20%	2.7%	·	-2%
O=C(NCc1ccccc1)C1CCCN(S(=O)(=O)c2cccc3nonc23)C1 (centres undefined)	-21%	?	-23	-8%
O=C(COC(=O)c1ccc(Cl)nc1)Nc1ccc(N2CCOCC2)cc1	14%	-2.1%	·	·
CCOc1ccccc1C(=O)NC(C(=O)OCC(=O)Nc1nnc(-c2ccccc2)o1)C(C)C (centres undefined)	-31%	2.1%	-6	-4%
Cc1nc2ccccc2c(=O)n1CCN1CCOCC1	?	4.3%	1	1%
BrC(/C=N/Nc1nc(N2CCOCC2)nc(N2CCOCC2)n1)=C/c1ccccc1	2%	-1.6%	12	10%
CC(=O)NS(=O)(=O)c1ccc(NC(=O)C(Sc2ccccc2)c2ccccc2)cc1 (centres undefined)	1%	-0.5%	-11	-3%
Cc1ccc(/C=C2/CCc3c([nH]c4ccccc34)C2=O)cc1	-15%	?	-3	-60%
O=C(NCc1ccccc1)c1cc(S(=O)(=O)N2CCCCC2)ccc1N1CCOCC1	7%	0.7%	1	7%
Cc1ccccc1N1CCN(C2CCCN(C(=O)c3ccsc3)C2)CC1 (centres undefined)	10%	2.7%	·	2%
O=C(O)c1cccc(NC(CNS(=O)(=O)c2ccc(Cl)cc2)c2ccccc2)c1 (centres undefined)	-2%	-0.1%	4	-6%
COc1cc(O)oc1C=Nc1ccc(Oc2ccccc2)cc1	0%	4.1%	-28	-7%
Cc1c(OC(C)C(=O)N[C@@H](Cc2ccccc2)C(=O)O)ccc2c3c(c(=O)oc12)CCCC3 (some centres undefined)	-17%	-1.4%	·	-6%
CC(C)CNC(=O)c1ccccc1-c1ccccc1C(=O)O	3%	4.4%	10	-1%
CCOc1cc(/C=N/NC(N)=S)cc(Br)c1OCc1ccccc1C	-13%	0.6%	-5	24%
COc1cc2c(cc1OC)CN(C(=O)/C=C/c1cccc([N+](=O)[O-])c1)CC2	17%	-0.8%	·	-9%
CN(C)C(CNc1ncnc2sccc12)c1cccs1 (centres undefined)	-17%	?	5	-4%
COc1cc(NC(=O)COC(=O)/C=C/c2ccc(Cl)cc2Cl)cc(OC)c1	5%	0.2%	0	8%
COc1ccc(CNC(=O)c2c[nH]c3c(OC)cc(OC)cc3c2=O)cc1	4%	-2.1%	·	-9%
O=C1C=C(c2ccc3ccccc3c2)C[C@@H](c2ccc(Cl)cc2)C1	20%	-0.8%	·	·
O=C1CC(c2ccccc2Cl)CC(O)=C1C=Nc1ccccc1 (centres undefined)	12%	0.6%	5	0%
FC(F)(F)c1cccc(N/N=C/c2ccccc2)c1	-16%	-0.9%	-3	-75%
O=C(NCc1cccs1)C1CCN(S(=O)(=O)c2ccc(Cl)cc2)CC1	-13%	5.1%	7	-3%
O=C(NCc1ccco1)C1CC2CCC1C2 (centres undefined)	-12%	-3.3%	4	-5%
Nc1c(C2=NCCO2)nnn1Cc1ccccc1	3%	2.5%	-8	-5%
Cc1cccc(N2CC(C(=O)Nc3nnc(SCC(=O)NCC4CCCO4)s3)CC2=O)c1 (centres undefined)	1%	-1.2%	·	0%
(more compounds)
SMILES	Rango dissoc inh	Rango-impB inh	GLA inh pH 4.5	miR-21 FLuc
O=C(O)c1ccc(NCc2nc3ccccc3n2Cc2ccccc2)cc1	1%	0.1%	-7	-6%
O=C(C[n+]1cc(-c2ccccc2)n2c1CCCCC2)c1ccc(Cl)cc1	-9%	-0.4%	7	0%
CN(C)S(=O)(=O)c1ccc(Cl)c(NC(=O)COC(=O)CNS(=O)(=O)c2c(F)cccc2F)c1	-6%	-1.6%	·	·
COc1ccc(Nc2ccccc2NC(=O)c2ccccc2Br)cc1	-3%	-0.2%	·	2%
N#Cc1cnn2c1nc(N1CCOCC1)c1ccccc12	-11%	5.3%	-1	-7%
Nc1nonc1OCCOCCOCCOc1nonc1N	-2%	-5.5%	3	0%
O=C(Oc1ccccc1/C=C\C(=O)c1cc2ccccc2o1)c1cccc(F)c1	-3%	-0.2%	-4	-41%
CC(NC(=O)c1cccc(F)c1)C1CC2CCC1C2 (centres undefined)	-6%	-0.5%	·	·
Cc1ccc(C)c(S(=O)(=O)N2CCCCC2CCNC(=O)C(=O)NCc2ccncc2)c1 (centres undefined)	16%	1.1%	·	·
CC1(C(=O)O)COC(c2ccc(Cl)cc2)OC1 (centres undefined)	-12%	0.8%	-7	5%

Limited to Rango-impB inh (6 entries from above):
compound | Rango-impB inh
Nc1nonc1OCCOCCOCCOc1nonc1N | -5.5%
O=C(C[n+]1cc(-c2ccccc2)n2c1CCCCC2)c1ccc(Cl)cc1 | -0.4%
COc1ccc(Nc2ccccc2NC(=O)c2ccccc2Br)cc1 | -0.2%
CC(NC(=O)c1cccc(F)c1)C1CC2CCC1C2 (centres undefined) | -0.5%
O=C(Oc1ccccc1/C=C\C(=O)c1cc2ccccc2o1)c1cccc(F)c1 | -0.2%
O=C(O)c1ccc(NCc2nc3ccccc3n2Cc2ccccc2)cc1 | 0.1%

Screening results from PubChem BioAssay.
